# Screens deposited in PubChem BioAssay by ICCB-Longwood Screening Facility, Harvard Medical School.
# Polio RdRp inh – poliovirus RNA polymerase inhibition; poliovirus polymerase elongation, fluorescence polarization; active compounds read low; % elongation, % (compound at 16.7 µg/mL); 150,000 compounds, 0.66% hits; in the data active means % elongation below about 90%; further: some results filed as inactive read as strong as hits
# Mtb MbtI inh – blocks the Mycobacterium tuberculosis siderophore enzyme MbtI; P9WFX0; purified MbtI enzyme, fluorescence intensity read-out; inhibition, %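 (about 17 µg/mL by stock and volumes)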; 100,000 compounds, 0.89% hits;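 active means above 50% in both replicates, above 80% if mildly self-fluorescent; inactive means the rest, strongly fluorescent compounds included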;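 further: 0% = mean of negative and 100% = mean of positive controls; one replicate is shown; some compounds called inactive have numbers as strong as hits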
# Target sequence (P9WFX0 whole entry, looked up): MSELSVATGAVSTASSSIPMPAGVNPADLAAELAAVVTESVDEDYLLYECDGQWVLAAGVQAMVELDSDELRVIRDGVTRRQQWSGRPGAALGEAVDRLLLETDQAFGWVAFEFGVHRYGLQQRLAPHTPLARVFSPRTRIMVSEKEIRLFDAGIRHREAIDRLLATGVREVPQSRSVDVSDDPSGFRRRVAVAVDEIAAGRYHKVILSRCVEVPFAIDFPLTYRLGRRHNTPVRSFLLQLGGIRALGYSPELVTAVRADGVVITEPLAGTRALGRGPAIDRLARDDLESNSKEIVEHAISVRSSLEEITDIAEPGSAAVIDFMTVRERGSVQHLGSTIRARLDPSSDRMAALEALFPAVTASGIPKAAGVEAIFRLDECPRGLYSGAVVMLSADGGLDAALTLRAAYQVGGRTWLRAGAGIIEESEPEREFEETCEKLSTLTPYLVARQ
# MenB inh – inhibitors of Mycobacterium tuberculosis MenB enzyme; P9WNP5; inhibition, %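 (about 12 µg/mL by stock and volumes)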; 100,000 compounds, 0.43% hits; MenB enzyme assay, absorbance read-out; some hits fall short of the stated cut;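 active means mean of two replicates above 30%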;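 further: 0% = no compound and 100% = wells with inactive enzyme; the first replicate is given; strong numbers were not always called active; inactives centre near -10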
# Target sequence (P9WNP5 whole entry, looked up): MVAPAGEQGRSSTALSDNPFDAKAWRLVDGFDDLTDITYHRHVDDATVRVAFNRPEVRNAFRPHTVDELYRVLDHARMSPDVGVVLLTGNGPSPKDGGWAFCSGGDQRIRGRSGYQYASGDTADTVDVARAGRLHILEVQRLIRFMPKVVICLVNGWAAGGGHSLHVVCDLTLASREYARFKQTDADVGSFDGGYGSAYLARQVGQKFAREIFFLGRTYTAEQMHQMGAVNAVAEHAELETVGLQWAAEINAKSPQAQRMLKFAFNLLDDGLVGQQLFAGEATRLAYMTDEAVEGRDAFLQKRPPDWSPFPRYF
# Polio RdRp inh intensity – recorded beside Polio RdRp inh, whose call it bears; % elongation; measured here: total intensity read-out; formula for this scale not given here;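 total fluorescence in place of polarization; lower means less elongation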
# Active calls of the source: *; / = not tested or not shown.
(1) CCc1cc2c(COC(=O)c3ccccn3)cc(=O)oc2cc1O
(2) CCN(Cc1ccccc1)C(=O)CC1Oc2ccccc2NC1=O (stereo not drawn)
(3) CCOC(=O)c1cc(-c2cccs2)nn1CCC#N
(4) Nc1ncc(-c2cc3ccccc3oc2=O)s1
(5) Cc1ccc(COn2c(-c3ccccc3)nc3ccccc3c2=O)cc1
(6) CC1CCN(S(=O)(=O)c2cc(Br)cc(C(=O)OCC(=O)N3CC(=O)Nc4ccccc43)c2)CC1

assay / entry	1	2	3	4	5	6
Polio RdRp inh	100	105	100	102	110	104
Polio RdRp inh intensity	105	104	99	97	110	102
Mtb MbtI inh	-58	-2	-1	-2	-5	1
MenB inh	-37	-17	-8	-49	-14	-11

(7) COc1ccc(C2C(C(=O)N3CCN(Cc4ccc5c(c4)OCO5)CC3)CC(=O)N2c2ccc(OC)cc2)cc1 (stereo not drawn)
(8) CCOC(=O)Cn1cnc2c(nnn2-c2ccc(C)cc2)c1=O
(9) COC(=O)c1cn(CC(=O)OCC(=O)Nc2ccc(F)cc2)c2ccccc12
(10) CCN(Cc1ccccc1)C(=O)c1ccc(C(=O)N(CC)Cc2ccccc2)cc1
(11) O=C(/C=C/c1ccccc1)Nc1ccc2c(c1)OCO2
(12) O=C(CSc1ncnc2sc3c(c12)CCC3)NCCN1C(=O)CSC1=O

assay / entry	7	8	9	10	11	12
Polio RdRp inh	101	99	103	106	107	103
Polio RdRp inh intensity	102	103	105	114	110	108
Mtb MbtI inh	-4	12	-3	/	-18	10
MenB inh	-1	-3	-10	-5	-29	10

(13) CC(C)CN(CC(C)C)S(=O)(=O)N1CCC(C(=O)N2CCOCC2)CC1
(14) CCN(CC)N=Nc1ccc(S(=O)(=O)Nc2nc(C)cc(C)n2)cc1
(15) CCCc1nnc(NC(=O)C2CC(=O)N(C3CCCC3)C2)s1 (stereo not drawn)
(16) NCC1CCCN(CCc2ccccc2)C1 (stereo not drawn)
(17) CNCCCc1ccco1
(18) O=C(O)c1cc(S(=O)(=O)NCCN2CCNC2=O)ccc1O

assay / entry	13	14	15	16	17	18
Polio RdRp inh	100	102	99	103	103	101
Polio RdRp inh intensity	104	103	99	103	106	106
Mtb MbtI inh	1	-7	12	-5	0	-4
MenB inh	2	-10	11	-75	4	11

# A run of entries taken from the entries so far:
(5) Cc1ccc(COn2c(-c3ccccc3)nc3ccccc3c2=O)cc1
(6) CC1CCN(S(=O)(=O)c2cc(Br)cc(C(=O)OCC(=O)N3CC(=O)Nc4ccccc43)c2)CC1
(7) COc1ccc(C2C(C(=O)N3CCN(Cc4ccc5c(c4)OCO5)CC3)CC(=O)N2c2ccc(OC)cc2)cc1 (stereo not drawn)
(8) CCOC(=O)Cn1cnc2c(nnn2-c2ccc(C)cc2)c1=O
(9) COC(=O)c1cn(CC(=O)OCC(=O)Nc2ccc(F)cc2)c2ccccc12
(10) CCN(Cc1ccccc1)C(=O)c1ccc(C(=O)N(CC)Cc2ccccc2)cc1
(11) O=C(/C=C/c1ccccc1)Nc1ccc2c(c1)OCO2
(12) O=C(CSc1ncnc2sc3c(c12)CCC3)NCCN1C(=O)CSC1=O

assay / entry	5	6	7	8	9	10	11	12
Polio RdRp inh	110	104	101	99	103	106	107	103
Polio RdRp inh intensity	110	102	102	103	105	114	110	108
Mtb MbtI inh	-5	1	-4	12	-3	/	-18	10
MenB inh	-14	-11	-1	-3	-10	-5	-29	10

(13) CC(C)CN(CC(C)C)S(=O)(=O)N1CCC(C(=O)N2CCOCC2)CC1
(14) CCN(CC)N=Nc1ccc(S(=O)(=O)Nc2nc(C)cc(C)n2)cc1
(15) CCCc1nnc(NC(=O)C2CC(=O)N(C3CCCC3)C2)s1 (stereo not drawn)
(16) NCC1CCCN(CCc2ccccc2)C1 (stereo not drawn)
(17) CNCCCc1ccco1
(18) O=C(O)c1cc(S(=O)(=O)NCCN2CCNC2=O)ccc1O

assay / entry	13	14	15	16	17	18
Polio RdRp inh	100	102	99	103	103	101
Polio RdRp inh intensity	104	103	99	103	106	106
Mtb MbtI inh	1	-7	12	-5	0	-4
MenB inh	2	-10	11	-75	4	11

# Next records:
(19) N#Cc1c(-c2c(O)[nH]c3ccccc23)c2c(-c3ccncc3)[nH]nc2oc1=N
(20) CC(C)C(C(=O)NC1CN2CCC1CC2)c1ccc(Cl)cc1 (stereo not drawn)
(21) Cc1ccc2c(COC(=O)C3CSC4(C)CCC(=O)N34)cc(=O)oc2c1C (stereo not drawn)
(22) Cc1ccc(C(=O)NCC(=O)OC2CCCCC2=O)cc1C (stereo not drawn)
(23) CCOC(=O)c1ccc(Nc2ncnc3c2cnn3Cc2ccccc2)cc1
(24) COc1ccc(Cl)cc1NC(=O)c1ocnc1C

assay / entry	19	20	21	22	23	24
Polio RdRp inh	99	98	105	104	104	100
Polio RdRp inh intensity	101	109	108	109	102	101
Mtb MbtI inh	-1	15	-20	-3	117	25
MenB inh	0	-6	-15	-6	-22	-28

(25) CCOC(=O)C1CCN(/C=C2/C(=O)NC(=O)N(c3cccc(C)c3C)C2=O)CC1
(26) COC(=O)/C(C#N)=C/c1ccc(Cl)cc1
(27) Clc1ccc(-c2csc3ncnc(NCc4ccco4)c23)cc1
(28) COc1cc(-c2nnc(SCC(=O)N3CCCCC3C)o2)cc(OC)c1OC (stereo not drawn)
(29) O=C1CSc2ccc(C(=O)NCc3c(F)cc(F)cc3F)cc2N1
(30) OCCn1c2ccccc2c2cc(Cl)ccc21

assay / entry	25	26	27	28	29	30
Polio RdRp inh	100	101	102	102	103	102
Polio RdRp inh intensity	106	104	98	97	105	98
Mtb MbtI inh	-6	3	7	24	4	-22
MenB inh	2	18	-6	-36	-2	-28

(31) O=C(O)/C=C/C(=O)NC1CC1
(32) COC(=O)c1ccccc1S(N)(=O)=O
(33) COc1cccc(CN(CCO)Cc2ccccc2)c1OC
(34) O=S(=O)(c1ccc(Cl)nc1)N1CCCC1
(35) CC(C)NC(=O)c1ccc2c(c1)N(Cc1ccc(Cl)cc1)C(=O)c1ccccc1S2=O (stereo not drawn)
(36) COc1ccc(NC(=S)N(C(C)C)C2CCN(C(C)C)CC2)cc1Cl

assay / entry	31	32	33	34	35	36
Polio RdRp inh	100	103	100	104	100	102
Polio RdRp inh intensity	102	100	102	105	101	97
Mtb MbtI inh	-19	4	-4	-6	-2	5
MenB inh	0	-108	12	/	-1	-21

(37) COc1ccccc1N1CCN(C(=O)c2nc(S(=O)(=O)Cc3ccccc3)ncc2Cl)CC1
(38) COc1cc(-c2noc(CCC(=O)Nc3cccc(C)c3C)n2)cc(OC)c1OC
(39) COc1ccc(Cl)cc1NCC(=O)Nc1ccc2c(c1)OCCO2
(40) CN1CC(=O)NC1=NC(=O)c1cc(F)c(F)cc1Cl
(41) CC(C)=NOC(=O)Nc1ccc(Cl)cc1
(42) O=C(O)c1cc(=O)c2cc(Cl)ccc2o1

assay / entry	37	38	39	40	41	42
Polio RdRp inh	100	100	103	102	99	97
Polio RdRp inh intensity	101	103	102	98	100	105
Mtb MbtI inh	63	19	-1	2	-7	11
MenB inh	0	-12	-27	4	-18	-34

(43) CC1CCCC(NC(=O)COC(=O)COc2ccccc2C#N)C1C (stereo not drawn)
(44) Nc1nc(CSc2ccccn2)nc(Nc2ccccc2)n1
(45) CC1(O)c2ccccc2C(=O)N1Cc1ccccc1 (stereo not drawn)
(46) CCCc1[nH]n(-c2ccc(F)cc2)c(=O)c1C=N
(47) CC1CCN(S(=O)(=O)c2ccc(NC(=O)CSc3nnnn3C)cc2)CC1
(48) O=C(O)CCCOc1ccc2c(c1)OCO2

assay / entry	43	44	45	46	47	48
Polio RdRp inh	109	100	100	101	103	102
Polio RdRp inh intensity	108	103	102	101	106	103
Mtb MbtI inh	-47	2	0	/	-6	0
MenB inh	-13	22	27	-5	-24	-37

(49) COc1cccc(-c2cc(C(=O)N3CCN(C(=O)c4ccco4)CC3)on2)c1
(50) N#CCCn1cc(/C=N/NC(=O)c2cnccn2)c2ccccc21
(51) O=C(NCc1ccccc1)c1cccc(S(=O)(=O)N2CCN(c3ccccc3)CC2)c1
(52) CN(C)Cc1ccccc1CNC(=O)CCC1CCCC1
(53) Cc1cc2c(cc3c(SCc4ccccc4)nncn32)o1
(54) CN1C(=O)C(=Cc2ccc(Br)cc2)C(=O)N(C)C1=O

assay / entry	49	50	51	52	53	54
Polio RdRp inh	103	105	98	/	99	101
Polio RdRp inh intensity	104	105	103	/	99	104
Mtb MbtI inh	7	6	4	-1	58	34
MenB inh	0	-30	-13	5	-32	-14

(55) N#Cc1sc2sc(C#N)c(-c3ccco3)c2c1N
(56) CC(C)CC(=O)N1CCN(S(=O)(=O)c2ccccc2)CC1
(57) COc1ccc(CC(=O)NCc2ccc3[nH]c4c(c3c2)CCCC4)cc1
(58) CCn1c(=O)cc(SCC(=O)NC(C)C)c2ccccc21
(59) Cc1ccc(NC(=O)C(c2ccccc2)N2CCCCC2)cc1 (stereo not drawn)
(60) NC(=O)NC(=O)CC1S/C(=N/N=C/c2ccccc2)NC1=O (stereo not drawn)

assay / entry	55	56	57	58	59	60
Polio RdRp inh	99	103	100	101	99	103
Polio RdRp inh intensity	95	101	101	102	105	106
Mtb MbtI inh	10	-10	-5	-1	-5	3
MenB inh	-28	6	-14	2	5	-2

(61) COC(=O)C(Cc1csc2ccc(Cl)cc12)NC(=O)c1ccc(C(F)(F)F)cc1 (stereo not drawn)
(62) O=C(NC1CCCC1)c1c[nH]c2ccc(S(=O)(=O)Nc3ccccc3F)cc2c1=O
(63) O=C(c1cc(=O)[nH]c2ccccc12)N(Cc1ccco1)Cc1cccs1
(64) CSc1cccc(N2CC(C(=O)N3CCN(S(=O)(=O)Cc4ccccc4)CC3)CC2=O)c1 (stereo not drawn)
(65) C/C(=N\N=C1\NC(=O)CS1)c1cccs1
(66) CCN=c1scc(-c2ccc(O)c(C(N)=O)c2)n1/N=C/c1ccc2c(c1)OCCO2

assay / entry	61	62	63	64	65	66
Polio RdRp inh	102	100	109	101	105	106
Polio RdRp inh intensity	99	101	121	109	102	106
Mtb MbtI inh	-9	-23	-4	-6	24	-11
MenB inh	1	-6	-13	-8	3	-35

(67) O=C1c2ccccc2-c2onc3c(Br)cc(NCc4ccccc4)c1c23
(68) CC(C(=O)N1CCCCC1)N1c2cccc3cccc(c23)S1(=O)=O (stereo not drawn)
(69) O=C(CSC1=Nc2ccccc2C2=NC(CC(=O)NCc3ccccc3)C(=O)N12)NCc1ccco1 (stereo not drawn)
(70) CC(=O)Nc1ccc(CNCCc2nnc3ccccn23)cc1
(71) COc1cccc(/C=C2\CN(C)C/C(=C\c3cccc(OC)c3)C2=O)c1
(72) Cc1oc(-c2ccccc2Cl)nc1Cn1cccc1C1=NC(c2ccccc2)CO1 (stereo not drawn)

assay / entry	67	68	69	70	71	72
Polio RdRp inh	71	102	99	91	100	105
Polio RdRp inh intensity	194	97	101	92	104	99
Mtb MbtI inh	-7	-32	53	19	14	-11
MenB inh	11	-33	-15	-13	1	-23

(73) O=C(O)CNc1nc(-c2ccccc2)nc2ccccc12
(74) CN(CCO)C(=O)c1ccc2c(c1)C(=O)c1ccccc1-2
(75) CCOC(=O)c1sc2nc(C)nc(Cl)c2c1C
(76) CN(CC(=O)Nc1ccc(OC(F)(F)F)cc1)C(=O)C1CC(=O)N(C2CCCC2)C1 (stereo not drawn)
(77) CCOc1ccc(N(CC)C(=O)C2CCCN2S(=O)(=O)c2cccc3nsnc23)cc1 (stereo not drawn)
(78) CSc1ccc(CN2CCOCC2)cc1

assay / entry	73	74	75	76	77	78
Polio RdRp inh	107	101	107	99	100	99
Polio RdRp inh intensity	111	102	93	104	101	97
Mtb MbtI inh	/	-1	6	-1	6	/
MenB inh	0	-14	-31	-20	-9	0

(79) CCn1c(SCc2ccc(C#N)cc2)nnc1-c1ccco1
(80) CCOC(=O)c1nc(Cn2cc(I)cn2)no1
(81) O=C(CC(c1ccccc1)c1ccccc1)N1CCN(c2ccccn2)CC1
(82) Cc1ccc(S(=O)(=O)NCC2OCCc3ccccc32)cc1 (stereo not drawn)
(83) CCC1CCCCN1C(=O)/C=C/c1ccc(C)cc1 (stereo not drawn)
(84) O=c1[nH]nc(N2CCN(c3nc(CSc4ccccc4)nc4sc5c(c34)CCC5)CC2)c(=O)[nH]1

assay / entry	79	80	81	82	83	84
Polio RdRp inh	103	107	100	101	103	103
Polio RdRp inh intensity	100	99	102	102	101	108
Mtb MbtI inh	1	-10	8	0	13	-5
MenB inh	6	-13	-49	-5	-17	-3

(85) CN1C(=O)/C(=C/C=C2/Sc3ccccc3N2CCO)SC1=S
(86) CC(C)CCNC(=O)c1sc2ccc(S(=O)(=O)N3CCCCC3)cc2c1N
(87) N#Cc1ccc(CSc2nc(-c3ccccc3)cc(=O)[nH]2)cc1
(88) CCOC(=O)C1CCCN(c2nc3c(C)cc(C)cc3s2)C1 (stereo not drawn)
(89) O=S(=O)(c1ccc(-c2csc(Nc3ccc(Br)cc3)n2)cc1)N1CCCCC1
(90) CCOC(=O)C1=C(C)NC(C)=C(C(=O)OCC)C1C(=O)OCC(=O)NCc1ccccc1OC
(91) COC(=O)C(C)c1ccc(C(=O)c2cccs2)cc1 (stereo not drawn)
(92) c1ccc(-c2nc(NC3CC3)nc(-n3ccnc3)n2)cc1

assay / entry	85	86	87	88	89	90	91	92
Polio RdRp inh	124	101	100	97	104	104	100	96
Polio RdRp inh intensity	147	102	103	97	110	105	101	101
Mtb MbtI inh	-6	-2	9	11	/	-181	-11	/
MenB inh	-9	-14	1	-9	-3	-10	-7	-10
